Assay outcomes as filed in PubChem BioAssay.
CtBP-E1A blk = qHTS Assay for Inhibitors of the CtBP/E1A Interaction | AlphaScreen GST-E1A/His-CtBP binding, 1536-well; stronger effect = lower value; control for the full effect not named in the record | CtBP / adenovirus E1A interaction (AlphaScreen) | activity change, % (no concentration beside the values) | 340,000 tested, 0.49% active; in the data active means activity change below about -65%; inconclusive means about -30% to -65%; inactive means above about -30%; also: % is scaled to controls: 0 for no effect and ±100 for the full control effect; compound concentration not given in the record
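Protein mix (5X: 125 nM each GST-E1A, His-CtBP) was incubated with pinned compound 2 h at 37 deg C in dark, in 50 mM Tris pH 8.0 buffer with 300 mM NaCl. Glutathione donor and nickel acceptor beads followed; AlphaScreen signal read after 1 h.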
D2 PAM = Beta-Arrestin HTS for Positive Allosteric Modulators of the Human D2 Dopamine Receptor: Potentiators. AID 624464, 2012. potentiation, % (no concentration beside the values). DiscoveRx D2 beta-arrestin cells, luminescence, 90 min; 100% = 57 uM dopamine signal. D(2) dopamine receptor (Homo sapiens), P14416. 360,000 tested, 0.23% active; active = potentiation of 50% or more; inconclusive = 30% to 50%; inactive = 30% or less;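 also: compound concentration not given in the record; tested on top of an EC20 dose of dopamine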
Target sequence (P14416 whole entry, looked up): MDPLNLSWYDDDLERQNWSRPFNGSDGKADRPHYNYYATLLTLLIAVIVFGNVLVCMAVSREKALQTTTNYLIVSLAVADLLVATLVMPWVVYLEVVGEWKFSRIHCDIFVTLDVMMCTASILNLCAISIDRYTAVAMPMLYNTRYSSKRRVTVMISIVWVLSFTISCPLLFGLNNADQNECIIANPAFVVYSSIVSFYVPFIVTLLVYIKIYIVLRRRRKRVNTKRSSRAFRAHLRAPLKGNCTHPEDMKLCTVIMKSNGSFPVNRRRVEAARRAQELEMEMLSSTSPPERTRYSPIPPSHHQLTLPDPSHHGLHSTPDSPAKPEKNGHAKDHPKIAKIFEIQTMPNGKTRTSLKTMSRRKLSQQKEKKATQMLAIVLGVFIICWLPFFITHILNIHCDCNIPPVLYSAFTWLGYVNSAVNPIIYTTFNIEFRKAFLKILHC
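PathHunter beta-arrestin assay in DiscoveRx D2 cells. Compounds were added with an EC20 of dopamine (50 nM final) for 90 min at 37 deg C. Luminescence was read 1 h after detection reagent, with 57 uM dopamine as the EC100 control.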
TRPML1 agonist = qHTS for Agonists of the Human Mucolipin Transient Receptor Potential 1 (TRPML1); TRPML1-expressing cells, Ca2+ dye fluorescence, FDSS; host cell line not named in the record; reference of the full effect not given here; Mucolipin-1 (Homo sapiens), Q9GZU1; activation, % (test concentration not listed); 410,000 tested, 0.12% active; AID 624414, 2012; in the data active = activation above about 50%; inconclusive = about 30% to 50%; inactive = below about 30%; also: 0% is about no effect; the text of the record puts the active cut at 80%
Target sequence (Q9GZU1 whole entry, looked up): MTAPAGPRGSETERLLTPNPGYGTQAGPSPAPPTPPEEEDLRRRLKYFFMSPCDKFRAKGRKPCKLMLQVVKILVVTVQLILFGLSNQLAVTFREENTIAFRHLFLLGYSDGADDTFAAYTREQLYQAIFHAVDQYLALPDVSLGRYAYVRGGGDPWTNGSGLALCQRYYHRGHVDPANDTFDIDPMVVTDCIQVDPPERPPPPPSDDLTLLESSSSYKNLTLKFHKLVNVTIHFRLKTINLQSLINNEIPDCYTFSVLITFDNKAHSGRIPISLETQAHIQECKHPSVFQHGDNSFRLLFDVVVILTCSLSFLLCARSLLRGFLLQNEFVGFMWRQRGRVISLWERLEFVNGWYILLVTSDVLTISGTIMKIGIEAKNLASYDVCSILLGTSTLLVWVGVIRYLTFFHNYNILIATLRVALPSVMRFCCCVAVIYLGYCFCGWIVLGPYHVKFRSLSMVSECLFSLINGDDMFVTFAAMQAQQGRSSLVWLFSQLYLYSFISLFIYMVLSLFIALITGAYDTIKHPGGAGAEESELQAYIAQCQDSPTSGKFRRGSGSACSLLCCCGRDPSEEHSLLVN
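Tet-induced TRPML1-DL cells, 1,500 per well, cultured overnight, were loaded with a no-wash Ca2+ dye for 45–90 min. Calcium fluorescence was recorded on the FDSS for 110 s after compound addition, before the EC80 agonist (4 uM 54-4) was added.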
Six1-Eya2 blk = qHTS Assay for Inhibitors of the Six1/Eya2 Interaction. Homeobox protein SIX1 (Homo sapiens) + Protein phosphatase EYA2 (Homo sapiens), …. AlphaScreen GST-Six1/His-Eya2 binding, biochemical; stronger effect = lower value; control for the full effect not named in the record. activity change, % (concentration not given with the values). 360,000 tested, 0.56% active; in the data active = activity change below about -65%; inconclusive = about -30% to -65%; inactive = above about -30%; also: % is scaled to controls: 0 for no effect and ±100 for the full control effect
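Compounds are tested against tagged Six1 and Eya2 proteins bridged by glutathione donor and nickel acceptor beads; after a one-hour incubation at 37 °C without light, AlphaScreen emission is recorded.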
TRPV1 potentiator = HTS Assay for Compounds that Act as Potentiators of the Vanilloid Receptor 1; TRPV1-expressing cells, Fluo-8 calcium influx, capsaicin EC20 potentiation; host cell line not named in the record; control for the full effect not named in the record; potentiation, % at 8.33 µM; 320,000 tested, 0.02% active; active means potentiation above 80%; inconclusive means 30% to 80%; inactive means below 30%; also: 0% is about no effect
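Fluo-8 calcium influx in TRPV1-expressing cells, kinetic read (ex 480/em 520 nm). Compound added and read 3 min for agonist activity, followed by capsaicin at EC20 final and 2 min further read for enhancement.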
TRPML1 blocker = qHTS for Inhibitors of the Human Mucolipin Transient Receptor Potential 1 (TRPML1); Mucolipin-1 (Homo sapiens), Q9GZU1; TRPML1-inducible cells, Ca2+ dye fluorescence, FDSS; stronger effect = lower value; inhibition of EC80 agonist-evoked calcium signal; activity change, negative = inhibition, % (concentration not given with the values); 390,000 tested, 0.02% active; AID 624415, 2012; in the data active means activity change below about -50%; inconclusive means about -30% to -50%; inactive means above about -30%;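 also: stimulus is agonist 54-4 at its EC80 concentration; % is scaled to controls: 0 for no effect and ±100 for the full control effect; compound concentration not given in the record; the text of the record puts the active cut at -80%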
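Calcium fluorescence in TRPML1-DL cells induced overnight with Tet: a 110 s read after compound pin addition, then a 110 s antagonist read after challenge with 54-4 at 4 uM final (EC80).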
Starred values were filed as active, the others as inactive; u = inconclusive; x = no result given.

(1) O=C(COC(=O)COc1cccc(Br)c1)Nc1ccc(F)cc1F
(2) CN1CCN(C(=O)c2ccccc2-c2ccccc2C(=O)O)CC1
(3) COc1ccc(/C=C(\NC(=O)c2ccc(OC)cc2)C(=O)Nc2ccc(C(=O)O)cc2)cc1
(4) C=CCSc1nnc(COc2ccc(=O)n(-c3ccccc3)n2)n1CC
(5) Cc1cccnc1C(NC(=O)C1CCN(CCCc2ccccc2)CC1)c1ccc(F)cc1 (stereo unspecified)
(6) S=C(NCc1ccco1)Nc1cc(Cl)c(Cl)cc1Cl
Screen / compound no.	1	2	3	4	5	6
TRPML1 blocker	-3	-3	-16	24	x	5
TRPV1 potentiator	-20	-21	0	-6	x	-4
TRPML1 agonist	-0.4	1.6	0.6	0.6	-0.4	-0.3
D2 PAM	-4	1	-4	-1	-21	-7
Six1-Eya2 blk	1	4	-6	4	-7	4
CtBP-E1A blk	0	3	0	4	-5	5

(7) Cc1cc(NC(=O)c2ccc(C)s2)n(-c2ccccc2)n1
(8) CCSc1ccccc1C(=O)Nc1nncs1
(9) O=C(NCCCN1CCCC1=O)c1cc(-c2cccnc2)nc2ccc(Cl)cc12
(10) O=C(c1ccc(Cl)nc1)N1CCN(S(=O)(=O)c2ccccc2)CC1
(11) CCCCCCSc1nsc(N)n1
(12) CCCCN1C(=O)C(CC(=O)NC(c2ccccc2)c2ccccc2)CC(C(=O)N(CC)CC)=C1C (stereo unspecified)
Screen / compound no.	7	8	9	10	11	12
TRPML1 blocker	-8	25	0	7	0	19
TRPV1 potentiator	4	u	8	4	7	x
TRPML1 agonist	0.7	-0.2	-0.4	0.2	4.6	1.1
D2 PAM	1	-18	-5	-5	-2	-1
Six1-Eya2 blk	0	-1	-7	3	-1	-4
CtBP-E1A blk	6	4	-5	1	-4	2

(13) Oc1cccc(/C=N/Nc2ccc(Cl)nn2)c1O
(14) COc1ccc(CN(CC(=O)NCc2ccco2)C(=O)CCC(=O)Nc2nccs2)cc1
(15) Cc1nc(Cl)sc1C(=O)Nc1ccc(C(F)(F)F)cc1
(16) O=C(CCc1nnc2ccc(NCc3ccco3)nn12)Nc1ccccc1F
(17) COc1ccc(CC(C(=O)Nc2cccc(F)c2)c2nn[nH]n2)c(OC)c1 (stereo unspecified)
(18) Cc1cccc(NC(=O)c2ccc3[nH]c(=O)c(=O)[nH]c3c2)n1
Screen / compound no.	13	14	15	16	17	18
TRPML1 blocker	-10	10	22	7	-8	11
TRPV1 potentiator	-1	-6	8	11	20	1
TRPML1 agonist	0.9	0.5	1.5	0.8	-0.8	-0.1
D2 PAM	-37	-25	-4	1	4	-8
Six1-Eya2 blk	-86*	0	6	-15	-2	u
CtBP-E1A blk	x	-5	-1	x	-4	x

(19) CCOc1cc(/C=N\NC(=O)c2ccc(NC(=O)CC)cc2)ccc1OC(=O)c1ccccc1
(20) CCOC(=O)C1CCN(C(=O)CCCNC(=O)Cn2cnc3sc(C)c(C)c3c2=O)CC1
(21) COc1ccc2c(C)cc(SCC(=O)Nc3c(C)n(C)n(-c4ccccc4)c3=O)nc2c1
(22) Cc1ccc(NC(=O)c2cc(-c3cc(Cl)ccc3C)n[nH]2)cc1NS(C)(=O)=O
(23) COc1ccc(C(=O)NNS(=O)(=O)c2ccccc2)cc1OC
(24) COc1cccc(/C=C2\SC(=N)N(c3ccc(F)cc3)C2=O)c1
Screen / compound no.	19	20	21	22	23	24
TRPML1 blocker	-13	18	-8	x	21	-8
TRPV1 potentiator	-7	-1	12	x	2	10
TRPML1 agonist	-0.7	-0.6	-0.9	-0.6	0.9	-0.7
D2 PAM	-14	-1	7	-7	-4	-12
Six1-Eya2 blk	6	10	-15	0	2	7
CtBP-E1A blk	9	21	-2	-4	-7	1

(25) COc1cccc(CNC(=O)CN2C(=O)CSc3ccc(S(=O)(=O)N4CCCCC4)cc32)c1
(26) CCO[C@H]1OC(C(=O)N2CCN(Cc3ccc4c(c3)OCO4)CC2)=C[C@@H](C)[C@@H]1CCCO
(27) CC[C@@]12C(=O)N(c3cccc(Br)c3)C(=O)N1[C@H](c1ccc(Br)cc1)[C@@H]1C(=O)N(C(C)(C)C)C(=O)[C@@H]12
(28) COc1ccc(-n2c(O)c(/C=N/NS(=O)(=O)c3ccc(C)c([N+](=O)[O-])c3)c3ccccc3c2=O)cc1OC
(29) COc1ccc(C(=O)Nc2cc(-c3ccccc3)nn2-c2ccccc2F)cc1
(30) O=C(NCCN1CCCCC1)c1ccc2c(c1)OCCO2
Screen / compound no.	25	26	27	28	29	30
TRPML1 blocker	4	-7	0	-8	11	-9
TRPV1 potentiator	5	8	-2	7	-4	8
TRPML1 agonist	-0.3	-0.5	0.2	13	2.9	0.3
D2 PAM	-12	-13	-7	-3	-13	-30
Six1-Eya2 blk	3	0	-5	-12	-6	2
CtBP-E1A blk	1	3	0	x	-2	5

(31) Cc1ccc(-c2nnc(N3CCCCC3)c3ccccc23)cc1S(=O)(=O)N(C)C
(32) COc1ccc2[nH]c(C(=O)N3CCN(Cc4ccccc4)CC3)cc2c1OC
(33) CC1(Oc2ccc(Cl)cc2)CCN(Cc2cccn2-c2nccs2)C1 (stereo unspecified)
(34) CCOC(=O)c1cc(-c2ccc(OC)cc2)n[nH]1
(35) COc1ccc(C2NC(=O)NC(C)=C2C(=O)OC2CCCC(C)C2)cc1 (stereo unspecified)
(36) CCc1ccc2[nH]c(=O)c(CN(CCCN3CCOCC3)C(=O)Nc3ccc(Cl)cc3)cc2c1
Screen / compound no.	31	32	33	34	35	36
TRPML1 blocker	-20	46	x	-14	17	17
TRPV1 potentiator	-14	-8	x	8	21	-5
TRPML1 agonist	0.2	0.1	-1.0	0.1	0.0	4.2
D2 PAM	-3	-5	-14	-2	2	-16
Six1-Eya2 blk	11	-2	-4	-2	-2	-1
CtBP-E1A blk	49	-8	-8	x	4	-7

(37) Nc1c(C(=O)NCCN2CCOCC2)c2nc3ccccc3nc2n1-c1ccccc1
(38) Cc1noc(C)c1C(=O)OCC(=O)NC1CC1
(39) COc1ccc(CC(=O)NCc2nnc(SCC(=O)Nc3cccc(F)c3)n2C)cc1
(40) NNC(=O)CN1C(c2ccccc2)=Nc2ccc(Br)cc2C1c1ccccc1 (stereo unspecified)
(41) O=C(CS(=O)(=O)c1ccccc1)Nc1ccc(Cl)cn1
(42) CCOC(=O)C1CCCN(C(=O)c2cc(-c3ccccc3)cs2)CC1 (stereo unspecified)
Screen / compound no.	37	38	39	40	41	42
TRPML1 blocker	-11	16	-2	31	0	92
TRPV1 potentiator	1	3	-5	0	-19	x
TRPML1 agonist	4.3	0.9	-1.0	-0.1	-0.3	3.0
D2 PAM	-4	-4	-8	-17	-6	-15
Six1-Eya2 blk	9	23	2	6	-2	5
CtBP-E1A blk	14	11	-2	-5	5	8

(43) CC(=O)c1cnn(-c2ccc(Cl)cc2)c1C
(44) COc1ccc(NC(=O)Nc2ccc(N(C)C)cc2)cc1
(45) CN(C)C(=O)NC(NC(=S)Nc1ccccc1)C(Cl)(Cl)Cl (stereo unspecified)
(46) Cc1cc(C)n2cc(CSc3ncn[nH]3)nc2n1
(47) CSCCC(NS(=O)(=O)c1ccc2ccccc2c1)C(=O)O (stereo unspecified)
(48) CC(NC(=O)c1ccc(CS(C)(=O)=O)cc1)c1ccc(-c2ccccc2)cc1 (stereo unspecified)
Screen / compound no.	43	44	45	46	47	48
TRPML1 blocker	15	1	2	-29	1	u
TRPV1 potentiator	-3	-2	2	1	5	-1
TRPML1 agonist	-0.2	0.0	3.4	-0.5	-0.7	0.2
D2 PAM	-2	6	-16	-7	1	4
Six1-Eya2 blk	8	-23	5	-4	8	4
CtBP-E1A blk	7	-12	0	-11	2	1

(49) COc1ccc(-c2noc(CN3CCN(c4ccccc4F)CC3)n2)cc1OC
(50) O=C(CCc1nc(-c2ccccc2F)no1)NCCN1CCN(Cc2ccccc2)CC1
(51) CSc1nc2ccc(NC(=O)C3CCCO3)cc2s1 (stereo unspecified)
(52) Cc1noc(C)c1COc1ccc(C(=O)OCC(=O)Nc2ccc3c(c2)OCO3)cc1
(53) Clc1nc(NCCN2CCOCC2)nc(NCc2ccccc2)n1
(54) Cc1nnc(SCC(=O)NC2CCS(=O)(=O)C2)n1Cc1ccccc1 (stereo unspecified)
Screen / compound no.	49	50	51	52	53	54
TRPML1 blocker	-14	-15	-5	5	-11	26
TRPV1 potentiator	-3	-4	14	-22	1	-6
TRPML1 agonist	0.7	-0.1	0.0	0.7	0.5	0.6
D2 PAM	6	-34	-26	-7	-11	-2
Six1-Eya2 blk	2	1	-12	-1	1	0
CtBP-E1A blk	-3	5	-7	-10	x	7

From compound 42 up to 51, as listed above:
(42) CCOC(=O)C1CCCN(C(=O)c2cc(-c3ccccc3)cs2)CC1 (stereo unspecified)
(43) CC(=O)c1cnn(-c2ccc(Cl)cc2)c1C
(44) COc1ccc(NC(=O)Nc2ccc(N(C)C)cc2)cc1
(45) CN(C)C(=O)NC(NC(=S)Nc1ccccc1)C(Cl)(Cl)Cl (stereo unspecified)
(46) Cc1cc(C)n2cc(CSc3ncn[nH]3)nc2n1
(47) CSCCC(NS(=O)(=O)c1ccc2ccccc2c1)C(=O)O (stereo unspecified)
(48) CC(NC(=O)c1ccc(CS(C)(=O)=O)cc1)c1ccc(-c2ccccc2)cc1 (stereo unspecified)
(49) COc1ccc(-c2noc(CN3CCN(c4ccccc4F)CC3)n2)cc1OC
Screen / compound no.	42	43	44	45	46	47	48	49
TRPML1 blocker	92	15	1	2	-29	1	u	-14
TRPV1 potentiator	x	-3	-2	2	1	5	-1	-3
TRPML1 agonist	3.0	-0.2	0.0	3.4	-0.5	-0.7	0.2	0.7
D2 PAM	-15	-2	6	-16	-7	1	4	6
Six1-Eya2 blk	5	8	-23	5	-4	8	4	2
CtBP-E1A blk	8	7	-12	0	-11	2	1	-3

(50) O=C(CCc1nc(-c2ccccc2F)no1)NCCN1CCN(Cc2ccccc2)CC1
(51) CSc1nc2ccc(NC(=O)C3CCCO3)cc2s1 (stereo unspecified)
Screen / compound no.	50	51
TRPML1 blocker	-15	-5
TRPV1 potentiator	-4	14
TRPML1 agonist	-0.1	0.0
D2 PAM	-34	-26
Six1-Eya2 blk	1	-12
CtBP-E1A blk	5	-7

Further results:
(55) CCCN(CC(=O)Nc1ccc(F)c(F)c1F)C(=O)C1CC(=O)N(Cc2ccccc2)C1 (stereo unspecified)
(56) NNC(=O)c1nn(-c2ccc(Cl)cc2)ccc1=O
(57) COc1cc(OCC(=O)NC(C)C)cc2c1C(=O)O[C@@H](C)CCCC(=O)CCCCC2
(58) CCN(CCn1cccn1)C(=O)c1cc(COc2ccccc2SC)on1
(59) O=C(CN1C(=O)COc2ccccc21)N1CCN(c2ccccc2F)CC1
Screen / compound no.	55	56	57	58	59
TRPML1 blocker	0	-7	29	-2	-24
TRPV1 potentiator	-7	29	-13	-4	-5
TRPML1 agonist	-0.2	1.0	0.0	1.2	0.3
D2 PAM	-8	-8	-7	-6	-15
Six1-Eya2 blk	-1	0	4	-2	3
CtBP-E1A blk	13	-6	x	2	-23
